Screening data: PubChem BioAssay, National Center for Advancing Translational Sciences (NCATS)
VACV Venus inh: qHTS for Stage-Specific Inhibitors of Vaccinia Orthopoxvirus: Venus Reporter Primary qHTS. Vaccinia virus Venus reporter expression, fluorescence. Potency, µM (series often up to 36.5 µM), inactives show top-dose activity change, negative = inhibition, actives largely listed as inhibitors. hit rate 0.46% among 330,000; active means well fitted inhibition curve with a large enough effect; inconclusive means small, poorly fitted or top-dose-only effect; inactive means no such curve, though single readings can be large or run the other way; tested in A549 cells; further: nearly all actives have a fitted effect of over 30% in size; inactives centre near -10
Vaccinia mCherry: qHTS for Stage-Specific Inhibitors of Vaccinia Orthopoxvirus: mCherry Reporter Primary qHTS; Vaccinia virus mCherry reporter infection, fluorescence; about a quarter of the inactives have no number; Potency, µM (series often up to 36.5 µM), for inactives: at the highest dose activity change, negative = inhibition, most hits filed as inhibitors; hit rate 0.63% among 310,000; AID 720579, 2013; active = well fitted inhibition curve with a large enough effect; inconclusive = small, poorly fitted or top-dose-only effect; inactive = no such curve, though single readings can be large or run the other way; tested in A549 cells; further: nearly all actives have a fitted effect of over 35% in size; inactives centre near -10
The depositor's hits bear a star; i = inactive; ? = inconclusive; / = no result given; & = joins results of further samples; [ ] = dose if it differs, or a comment. On the % scale 0 is the no-effect control and ±100 the full control effect; potency means the concentration at half of the fitted maximal effect. The order is random; about 0.82% have a hit in one of these screens.

The first seven entries (preview)
Below each compound: VACV Venus inh | Vaccinia mCherry
1. Cn1c(CCN2CCCCC2)nc2cc(NS(=O)(=O)c3ccc(F)cc3)ccc21
    -9% | -21%
2. N#CCC(=O)N/N=C/c1cc(-c2ccccc2)n(-c2ccc(Cl)cc2)c1-c1ccccc1
    -2% | -18%
3. NCc1oc(-c2ccccc2)cc1C(=O)O
    -9% | i
4. CCOc1ccc(S(=O)(=O)NCC2CCCO2)c2cccnc12 (stereo unspecified)
    -13% | -24%
5. C[C@H](CO)N1C[C@H](C)[C@@H](CN(C)S(=O)(=O)c2ccc(Cl)cc2)Oc2ccc(NS(=O)(=O)c3ccccc3)cc2CC1=O
    ? | ?
6. COc1ccccc1N1CCN(C(=O)c2cc3c(s2)-c2ccccc2OC3)CC1
    -1%&-15% | -27%&-24%
7. O=C(NCC(c1cccs1)N1CCOCC1)c1cccc([N+](=O)[O-])c1 (stereo unspecified)
    -15% | i

The list itself, from the first entry:
Below each compound: VACV Venus inh | Vaccinia mCherry
1. Cn1c(CCN2CCCCC2)nc2cc(NS(=O)(=O)c3ccc(F)cc3)ccc21
    -9% | -21%
2. N#CCC(=O)N/N=C/c1cc(-c2ccccc2)n(-c2ccc(Cl)cc2)c1-c1ccccc1
    -2% | -18%
3. NCc1oc(-c2ccccc2)cc1C(=O)O
    -9% | i
4. CCOc1ccc(S(=O)(=O)NCC2CCCO2)c2cccnc12 (stereo unspecified)
    -13% | -24%
5. C[C@H](CO)N1C[C@H](C)[C@@H](CN(C)S(=O)(=O)c2ccc(Cl)cc2)Oc2ccc(NS(=O)(=O)c3ccccc3)cc2CC1=O
    ? | ?
6. COc1ccccc1N1CCN(C(=O)c2cc3c(s2)-c2ccccc2OC3)CC1
    -1%&-15% | -27%&-24%
7. O=C(NCC(c1cccs1)N1CCOCC1)c1cccc([N+](=O)[O-])c1 (stereo unspecified)
    -15% | i
8. Cc1cc(OC(=O)c2cccs2)ccc1C(C)C
    -17% | /
9. CCOC(=O)c1cc(-c2ccccc2)sc1NC(=O)c1ccc(OC)c(OC)c1
    -2% | -4%
10. Cc1nc(N2CCN(C(=O)COc3ccccc3)CC2)c2c(C)c(C)sc2n1
    ? | ?
11. CCOC(=O)CSc1nc2c(sc3ccccc32)c(=O)n1CCCN1CCOCC1
    -13% | -22%
12. O=C(OCC(=O)N1CCCCCC1)c1cc(S(=O)(=O)N2CCOCC2)ccc1F
    -18% | i
13. COc1ncccc1C(=O)Nc1c(-c2ccccc2)[nH][nH]c1=O
    -13% | -8%
14. COC(=O)c1cc(C(=O)NCc2ccccc2)c(=O)[nH]c1C
    -11% | -14%
15. CC(NC(=O)c1ccc2c(c1)OCCO2)C(=O)O (stereo unspecified)
    -18% | -18%
16. CCOC(=O)CC(=O)CSc1nccc(-c2cccnc2)n1
    -2% | i
17. COCCn1c(=S)[nH]c2cc(OC)c(OC)cc2c1=O
    -11% | -2%
18. Cc1cc(NC(=O)CSc2nnc3c(C)cc4cc(C)c(C)cc4n23)no1
    -4% | -11%
19. CCN(CC(=O)Nc1ccc(NC(C)=O)cc1)C(=O)CC1OC(=O)c2ccccc21 (stereo unspecified)
    -8% | -12%
20. Clc1cccc(N/N=C/c2ccc(N3CCOCC3)s2)c1
    -3% | -9%

The results go on:
Below each compound: VACV Venus inh | Vaccinia mCherry
21. COc1cccc(N2CCN(CC(=O)Nc3ccc(SC(F)F)cc3)CC2)c1
    -18% | -22%
22. CCOC(=O)C1=C[C@@H](C(C)C)N(S(=O)(=O)c2ccc([N+](=O)[O-])cc2)[C@H]1c1ccccc1
    -8% | -6%
23. CCOC(CCn1c(SCc2ccc([N+](=O)[O-])cc2)nc2ccccc2c1=O)OCC
    -14% | ?
24. COc1ccccc1C(=O)NC(C)c1ccccc1 (stereo unspecified)
    -23% | /
25. COc1ccc(CCNC(=O)CSc2cn(CCNC(=O)c3cccc(C(F)(F)F)c3)c3ccccc23)cc1OC
    ? | ?
26. CC(C)(C)OC(=O)NCCCCCNC(=O)c1[nH]cnc1C(=O)Nc1nccs1
    -17% | -7%
27. O=C(C[n+]1ccncc1)c1ccc2c(c1)CCCC2
    -8% | -13%
28. Cc1cccc(NC(=O)COC(=O)CCc2ccccc2)c1C
    -6% | -2%
29. O=C(Oc1ccc(F)c(F)c1)c1ccc2c(=O)n3c(nc2c1)CCC3
    -4% | i
30. CCOC(=O)C1=C(C)NC(=O)NC1c1ccc(OCC(=O)Nc2ccccc2)c(OC)c1 (stereo unspecified)
    -4% | 1%
31. COc1ccc(S(=O)(=O)N2CCCCCC2)cc1C(=O)Nc1ccccn1
    -15% | -13%
32. Cc1ccc(N(CC(=O)NC2CCCCC2)S(=O)(=O)c2c(C)noc2C)cc1
    -18% | -11%
33. O=C(Nc1ccc(F)c([N+](=O)[O-])c1)C1CCCO1 (stereo unspecified)
    -8% | i
34. CCc1ccccc1NC(=O)CCn1cccn1
    8% | 0%
35. CC12CCC(C(=O)N(NC(=O)c3cc(Cl)ccc3O)C1=O)C2(C)C (stereo unspecified)
    -10% | /
36. Cc1cc(OC(=O)C(c2ccccc2)c2ccccc2)c([N+](=O)[O-])c(=O)[nH]1
    -10% | i
37. CCC(=O)/C=C1\Sc2ccccc2N1CC
    -20% | -22%
38. COc1cc(NC(C)C(=O)N2CC(C)OC(C)C2)cc(OC)c1 (stereo unspecified)
    5% | /
39. CCC(C(=O)Nc1c(C)cccc1C)n1c(-c2cc(C)cs2)nc2ccccc21 (stereo unspecified)
    17% | -16%
40. Cc1cccnc1NC(=O)CSc1ncnc2sc(C)c(C)c12
    1% | 8%

(listing goes on)
Below each compound: VACV Venus inh | Vaccinia mCherry
41. O=S(=O)(c1ccc(Cl)c(NC(=S)N/N=C/c2ccc(O)cc2)c1)N1CCOCC1
    ? | ?
42. COc1cccc(C2=CC(=O)CC(C)(C)C2=O)c1
    -9% | -17%
43. CCOC(=O)N1CCc2c(sc(NCc3sccc3C)c2C(=O)Nc2ccccc2OCC)C1
    -8% | -25%
44. Cc1ccc(NC(=O)CCn2cnc3cc(C)c(C)cc32)cc1
    -12% | -4%
45. Cc1ccc(-c2nc(S(=O)(=O)c3ccc(C)cc3)c(N3CCCCCC3)o2)cc1
    -15% | -13%
46. Cc1ccc(C(CC(=O)O)Nc2nc(N3CCOCC3)nc(N3CCOCC3)n2)cc1 (stereo unspecified)
    -11% | -7%
47. O=C(CC[C@H]1O[C@@H](n2ccc(=O)[nH]c2=O)[C@H](O)[C@@H]1O)N[C@H](Cc1ccccc1)C(=O)NCC1CCCO1 (stereo partly specified)
    7% | 3%
48. COc1ccc(S(=O)(=O)Nc2cccc3c2O[C@@H](CN(C)CC2CC2)[C@@H](C)CN([C@@H](C)CO)C3=O)cc1
    -20% | i
49. CCCCNC(=O)C(CC)Sc1nc2ccccc2c(=O)n1Cc1ccco1 (stereo unspecified)
    9% | -4%
50. CN(CC(=O)NCc1ccccc1Cl)S(=O)(=O)c1ccc2c(c1)c(=O)n(C)c(=O)n2C
    2% | -7%
51. CCc1nc2c(OCC(=O)C(C)(C)C)cccn2c1N(C=O)CC(=O)N(C)C
    15% | 3%
52. COCCC1CCCCN1C(=O)c1ccc(OC)c(OC2CCN(C(C)=O)CC2)c1 (stereo unspecified)
    -5% | -9%
53. CC(=O)NC(c1cccc(F)c1)c1nc(-c2cccc(C(=O)O)c2)cs1 (stereo unspecified)
    -7% | 34%[activator]
54. COc1ccccc1-c1nnc(SC(C)C(=O)N2CCOCC2)o1 (stereo unspecified)
    -6% | i
55. CC(C)(C)OC(=O)N1CCC(c2c(C(=O)NCCN3CCOCC3)cnn2-c2ccccc2)CC1
    ? | ?
56. CCOc1ccc(NC(=O)Cn2c(=O)n(CCCCCC(=O)NCc3ccccc3)c(=O)c3sccc32)cc1
    -9% | -8%
57. CC1CCc2c(sc(NC(=O)c3cc(-c4ccc(Br)cc4)on3)c2C(N)=O)C1 (stereo unspecified)
    4% | 2%
58. COc1ccc(NC(=O)C23CC4CC(C2)CC(n2cnc(Br)n2)(C4)C3)c(C)c1
    -10% | i
59. Cc1ccc(NS(=O)(=O)c2cc(NC(=O)c3cc4c(s3)CCCC4)ccc2C)c(C)c1
    5% | -12%
60. COc1ccc(S(=O)(=O)NNC(=O)c2cc3c4ccccc4n(C)c3s2)cc1
    -17% | -18%

Next part.
Below each compound: VACV Venus inh | Vaccinia mCherry
61. CCCCN1C(N)=NC[C@@H]1C(C)O (stereo partly specified)
    -8% | i
62. Cc1ccc(NC2CCCN(C(=O)CCC3=NNC(=O)CC3)C2)cc1C (stereo unspecified)
    -15% | i
63. COCCNC(=S)NNC(=O)c1ccco1
    -10% | i
64. O=C(CSc1nc(C2CC2)nc2c1cnn2-c1ccccc1)Nc1c[nH]c(=O)[nH]c1=O
    -11% | i
65. Cc1cccc(OCC(=O)N2CCC(c3ccccc3)C2)c1 (stereo unspecified)
    -14% | -10%
66. O=C(CCl)N1c2ccccc2OCC1c1ccccc1 (stereo unspecified)
    -7% | i
67. OC[C@@H]1CN(Cc2cccs2)C[C@H](n2cnc3c(N4CCOCC4)ncnc32)O1
    9% | 7%
68. COc1ccc(S(=O)(=O)N2CCc3ccccc32)cc1C(=O)OCC(=O)c1c(N)n(C)c(=O)n(C)c1=O
    1% | 4%
69. N#Cc1ccccc1Cn1c(=O)n(CCCCC(=O)NCc2ccc3c(c2)OCO3)c(=O)c2ccccc21
    -14% | -18%
70. N#C/C(=C\c1ccc(N2CCOCC2)o1)C(=O)N1CCOCC1
    -12% | -17%
71. Cc1ccc(NC(=O)Cn2c(=O)n(CCC(=O)NCCc3ccccc3)c(=O)c3ccccc32)cc1
    -8% | -9%
72. Cc1ccc2c(c1)C(=O)OC(C(=O)Nc1ncc(Cc3ccccc3)s1)C2 (stereo unspecified)
    6% | 0%
73. CN(C)CCCNC(=O)c1cc(S(=O)(=O)N2CCOCC2)ccc1F
    -7% | i
74. O=C(Cc1ccccc1)Nc1c(C(=O)Nc2ccccc2F)oc2ccccc12
    -9% | -11%
75. CS(=O)(=O)N(Cc1ccc(C(=O)NCCSc2ccccn2)cc1)c1ccccc1
    -23% | -14%
76. CCCCOc1ccc(C(=O)Nc2ccc(N3CCN(C(=O)C(C)C)CC3)cc2)cc1
    -5% | -11%
77. NC(=O)[C@H]1CC2(CC(c3cccc(NC(=O)COc4ccc(Cl)cc4)c3)=NO2)CN1C(=O)c1ccccc1C(=O)c1ccccc1 (stereo partly specified)
    ? | ?
78. CC1CCCC(NC(=O)C2CCCN2S(=O)(=O)c2cccc3nsnc23)C1C (stereo unspecified)
    -3% | i
79. O=c1[nH]c2ccc(Cl)cc2[nH]1
    -6% | i
80. CCC/C(=C1/c2ccccc2C(=O)N1c1ccccc1)c1ccc2[nH]ccc2c1
    -27% | -26%

Continued:
Below each compound: VACV Venus inh | Vaccinia mCherry
81. CCCC(=O)N(c1ccc2oc(C)c(C(C)=O)c2c1)S(=O)(=O)c1ccc(CC)cc1
    ? | ?
82. CCOC(=O)c1cc2c(=O)n3ccccc3nc2n(CC(C)C)c1=NC(=O)C(C)(C)Oc1ccc(Cl)cc1
    -19% | -22%
83. Cc1ccc(NC(=O)C(=O)NCCN2CCN(S(=O)(=O)c3ccccc3)CC2)cc1C
    -16% | -21%
84. Cc1cccn2c(=O)c3cc(C#N)c(=O)n(-c4nnc(SCc5ccc(F)cc5)s4)c3nc12
    -5% | -9%
85. O=C(c1cc(-c2cccc(Cl)c2)on1)N1CCCCCC1
    11% | 1%
86. OC[C@H]1O[C@@H](c2nc3ccc(-c4nc(-c5cccs5)no4)cc3[nH]2)C[C@@H]1O
    -2% | 43%[activator]
87. Cc1ccc(-c2cnc(C3CC3)o2)cc1S(=O)(=O)Nc1ccc(F)cc1Cl
    -5% | -17%
88. CNC(=S)N(CCc1c(C)[nH]c2ccc(F)cc12)Cc1ccco1
    -7% | ?
89. Cc1ccc(N(Cc2ccc(C(=O)NN=C3CCN(C)CC3)cc2)S(C)(=O)=O)cc1C
    -13% | i
90. N#Cc1ccc2[nH]cc(CCO)c2c1
    -4% | i
91. CCCOC(=O)c1c(-c2ccccc2)nc(CC)c(C(=O)SCC)c1CCC
    -17% | -3%
92. Cc1ccc([N+](=O)[O-])cc1S(=O)(=O)N1CCN(C)CC1
    -6% | -9%
93. Cc1ccc(S(=O)(=O)Nc2ccc3c(c2)c2c(n3S(=O)(=O)c3ccc(C)cc3)CCCC2=O)cc1
    -13% | -14%
94. CCOC(=O)N1C(=O)NC(=O)C1c1ccccc1 (stereo unspecified)
    -3% | i
95. Cc1cc(N2CCN(c3ccccc3)CC2)n2cc(-c3ccccc3)nc2n1
    -20% | ?
96. CC(=O)Nc1cc(S(=O)(=O)Nc2ccc(C)cc2)c(C)cc1C
    -5% | /
97. COc1ccc(OCC(=O)NNC(=O)c2cccc(O)c2)cc1
    -9% | i
98. O=C1CCc2cc(S(=O)(=O)NC(Cc3ccccc3)C(=O)NCCC3=CCCCC3)ccc2N1 (stereo unspecified)
    -6% | i
99. COc1cccc(OC)c1NC(=O)CN1CCC(NC(=O)c2cccc(F)c2)CC1
    -6% | /
100. Cc1ccc(Cl)cc1NC(=O)N[C@@H](C)C(=O)O
    -2% | -10%

The results go on.
Below each compound: VACV Venus inh | Vaccinia mCherry
101. CCOc1nc(NCCN2CCOCC2)nc(NC(C)C)n1
    -12% | i
102. COC(=O)CCCC(=O)N1CCC(CO)(CCc2ccccc2)CC1
    -15% | -14%
103. COc1ccc(C(=O)Nc2cc3c(cc2Cl)OCCCO3)cc1
    -18% | /
104. Cc1cc(OCC(=O)c2cccc(C(F)(F)F)c2)n2cnnc2n1
    3% | -16%
